# Source: PubChem BioAssay
# RecA intein inh: inhibitors of M. tuberculosis RecA intein splicing | cell-free RecA intein splicing, fluorescence | inhibition, %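 (about 9 µM by stock and volumes)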 | 290,000 compounds, 0.75% hits | P9WHJ3; in the data active = inhibition above about 30%;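 also: 0% = vehicle wells and 100% = reference inhibitor control wells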
# Target sequence (P9WHJ3 whole entry, looked up): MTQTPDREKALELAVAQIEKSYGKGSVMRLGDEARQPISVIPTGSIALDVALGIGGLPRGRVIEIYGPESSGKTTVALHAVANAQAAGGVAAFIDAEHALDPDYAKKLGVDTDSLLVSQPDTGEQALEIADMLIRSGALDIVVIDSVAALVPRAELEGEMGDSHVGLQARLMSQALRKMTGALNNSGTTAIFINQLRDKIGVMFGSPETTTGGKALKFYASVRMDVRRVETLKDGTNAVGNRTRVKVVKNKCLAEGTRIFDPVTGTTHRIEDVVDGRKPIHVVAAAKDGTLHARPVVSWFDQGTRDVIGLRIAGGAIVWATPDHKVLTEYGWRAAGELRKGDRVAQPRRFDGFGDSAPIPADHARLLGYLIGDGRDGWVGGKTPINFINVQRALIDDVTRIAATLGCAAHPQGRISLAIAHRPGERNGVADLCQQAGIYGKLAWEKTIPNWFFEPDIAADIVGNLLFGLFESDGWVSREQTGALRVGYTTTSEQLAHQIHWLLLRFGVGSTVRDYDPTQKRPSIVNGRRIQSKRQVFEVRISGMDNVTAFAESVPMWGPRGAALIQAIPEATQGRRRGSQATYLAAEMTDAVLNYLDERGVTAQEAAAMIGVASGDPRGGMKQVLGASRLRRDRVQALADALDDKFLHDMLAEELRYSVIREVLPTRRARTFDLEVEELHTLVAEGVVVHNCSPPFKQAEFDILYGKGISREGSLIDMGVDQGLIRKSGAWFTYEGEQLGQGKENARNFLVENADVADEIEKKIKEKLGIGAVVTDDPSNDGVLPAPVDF
# YopH PTP inh: inhibitors of Yersinia enterocolitica YopH tyrosine phosphatase; fluorescence Ex485/Em525; 140,000 compounds, 0.16% hits; inhibition, %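 (about 10 µM by stock and volumes)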;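 active = inhibition of 50% or more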;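 also: controls were vehicle for no effect and minimum signal wells for full effect; inactives centre near -20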
# Mtb betalactam: beta-lactam sensitization of Mtb H37Rv. inhibition, % at 25 µM. 330,000 compounds, 0.27% hits. M. tuberculosis H37Rv growth with meropenem, percent inhibition; hits of this screen are not shown here;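 active = about 74% or more and at least 40 points above the plate without the antibiotic, then above 30% in a dose series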;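 also: growth measured after seven days incubation then overnight dye step; 0% = bacteria only wells and 100% = bacteria with antibiotic; twin plates without the antibiotic show which effects depend on it; some results filed as inactive read as strong as hits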
# Arbovirus anti: antivirals against arbovirus infection. arbovirus infection cell-based antiviral screen. inhibition, % at 10 µM. 200,000 compounds, 0.37% hits;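 active = inhibition from about 30%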;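 also: bluetongue infection of BSR cells; cell survival read as ATP light after 72 h; 0% = infected wells without compound and 100% = uninfected wells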
# Mtb growth: M. tuberculosis H37Rv growth inhibitors, H37Rv strain (AID 1626); M. tuberculosis H37Rv growth inhibition; higher % means a stronger effect; one-dose inhibition, % at 10 µM; IC50 in µM for titrated hits; 220,000 compounds, 0.95% hits;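 active = confirmed in a dose series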;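 also: bacteria incubated seven days before Alamar blue readout; 0% = bacteria only wells and 100% = bacteria with antibiotic wells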
# Starred values were filed as active, the others as inactive; . = not tested or not shown. A portion of the library. The share of hits here may be higher or lower than overall.
# Every second line gives: RecA intein inh | YopH PTP inh | Mtb betalactam | Arbovirus anti | Mtb growth
O=C(c1cncc(Br)c1)N1CCc2ccccc2C1
    -0.1 | -32 | -11 | 8 | -1%
CCC(C)(C)NC(=O)C(c1ccc(C)o1)N(C(=O)c1csnn1)c1cccc(F)c1 (stereo not drawn)
    2.6 | -19 | 4 | -4 | -6%
CCn1nc(CC(=O)Nc2nnc(CC(=O)N3CCOCC3)s2)c2ccccc2c1=O
    4.5 | -34 | -8 | 1 | 2%
COc1cc(C(=O)N/C(=C\c2cn(C)c3ccccc23)C(=O)NCCCN2CCOCC2)cc(OC)c1OC
    3.8 | . | -5 | . | .
COC(=O)/C(=C\Nc1ccc(Cl)c2ccccc12)c1ncc(C(F)(F)F)cc1Cl
    -8.4 | -10 | . | -7 | 11%
COc1ccc(-c2cc(-c3ccccc3O)[nH]n2)cc1
    17 | -34 | 93 | 0 | 0%
CCOC(=O)C1=C(C)Nc2ccccc2N=C1NC(=O)c1cccc(S(=O)(=O)N(C)C)c1
    1.5 | -29 | -1 | 2 | -15%
Oc1ccccc1-c1nc(NCc2ccco2)c2ccccc2n1
    -4.9 | -34 | 9 | -4 | -6%
CC(=O)C1=C(O)C(=O)N(c2ccc(O)cc2)C1c1ccccc1 (stereo not drawn)
    0.7 | . | 2 | . | .
O=C(NCCSc1ccccc1)c1ccco1
    1.8 | -7 | -13 | -5 | -11%
Fc1cccc2sc(Nc3nc4ccccc4s3)nc12
    -3.1 | -46 | 68 | 3 | 11%
CCN(CC(=O)Nc1ccccc1C(=O)OC)S(=O)(=O)c1ccc(OC)cc1
    -15 | -18 | -5 | 1 | 7%
CC(C)Oc1ccc(CNC(=O)c2cc(S(=O)(=O)N3CCOCC3)cn2C)cc1
    -1.6 | . | -1 | . | .
O=C(NC(=S)Nc1c(Cl)ccc2nsnc12)c1ccccc1F
    -12 | . | 6 | . | .
O=C(NC1CCN(Cc2cccc([N+](=O)[O-])c2)CC1)c1ccccc1
    -4.0 | . | 1 | . | .
COc1cnc(-c2ccccc2)nc1Sc1ccccc1
    . | . | 5 | 6 | -2%
COc1cc(/C=C2\C(=O)NC(=O)N(c3ccc(C)cc3)C2=O)cc(OC)c1O
    -3.3 | . | -3 | 3 | 10%
COc1ccc(S(=O)(=O)N(CC(=O)NCc2ccco2)c2ccc(F)cc2)cc1
    -0.1 | . | -1 | . | .
COc1ccc(NC(=O)COC(=O)CC2CCCC2)cc1Cl
    -1.0 | . | -10 | . | .
CC(=O)N1N=C(c2cccc([N+](=O)[O-])c2)OC1c1cccc(Br)c1 (stereo not drawn)
    -0.5 | . | 0 | -9 | -5%
CCCc1nc2ccccc2c(C(=O)OCC(=O)N2CCc3ccccc32)c1CC
    0.5 | -4 | 94 | 4 | 65%
Cc1cc(N2CCN(C)CC2)nc2ccc(NC(=S)N3CCN(c4ccccn4)CC3)cc12
    -5.4 | . | -4 | -11 | 3%
CC(C(=O)Nc1ccc(Cl)cc1)N(C)Cc1cccs1 (stereo not drawn)
    3.5 | . | 6 | . | .
Cc1cc(C)c(NC(=O)COC(=O)c2cccc3c2C(=O)c2ccccc2C3=O)c(C)c1
    2.9 | -22 | 0 | -10 | 10%
C=CCNc1nc(-c2ccc3c(c2)OCCO3)cs1
    8.5 | . | 8 | . | .
COc1ccc(C(=O)CSc2nnc(CNC(=O)c3ccco3)n2C)cc1OC
    4.7 | . | 3 | . | .
C/C(=N\NC(=O)CNC(=O)C(c1ccccc1)c1ccccc1)c1ccc(C(C)(C)C)cc1
    -1.7 | -13 | -4 | -27 | 1%
COC(=O)c1ccc(C)c(NS(=O)(=O)c2ccc3c(c2)OCCO3)c1
    -1.5 | -159 | 5 | -9 | 8%
C[C@@H](C(=O)NCc1c(F)cccc1Cl)N1C(=O)N2CCc3c([nH]c4ccccc34)[C@@]2(C)C1=O
    4.0 | . | -4 | . | .
CCOc1ccccc1/C=N/OCC(=O)NCc1ccc(F)cc1
    0.7 | . | -3 | -5 | 6%

# Fetched one by one from the entries so far (3):
# Every second line gives: RecA intein inh | YopH PTP inh | Mtb betalactam | Arbovirus anti | Mtb growth
CC(C(=O)Nc1ccc(Cl)cc1)N(C)Cc1cccs1 (stereo not drawn)
    3.5 | . | 6 | . | .
Cc1cc(C)c(NC(=O)COC(=O)c2cccc3c2C(=O)c2ccccc2C3=O)c(C)c1
    2.9 | -22 | 0 | -10 | 10%
Cc1cc(N2CCN(C)CC2)nc2ccc(NC(=S)N3CCN(c4ccccn4)CC3)cc12
    -5.4 | . | -4 | -11 | 3%

# Further entries:
# Every second line gives: RecA intein inh | YopH PTP inh | Mtb betalactam | Arbovirus anti | Mtb growth
CC1=C(C(=O)Nc2ccc(F)c(F)c2)C(c2cccs2)NC(=S)N1 (stereo not drawn)
    2.9 | -24 | 6 | -2 | -2%
COCCN1Cc2cccc(C(=O)Nc3ccc(S(=O)(=O)N4CCCCCC4)cc3)c2C1=O
    1.2 | . | -13 | . | -3%
CC(C)CC(COCc1ccc(Cl)cc1)N1CCN(C(=O)c2ccc(C(F)(F)F)cc2)CCC1=O (stereo not drawn)
    15 | -14 | 1 | -30 | 16%
CC/C(=N/NC(=O)CNc1ccc(Cl)cc1C)c1ccccc1
    1.6 | . | 6 | -3 | -3%
CCCC(O)(CCC)C(=O)NN1CCCCC1
    -0.5 | -2 | -4 | -1 | 0%
Cc1cc(NS(=O)(=O)c2ccc(NC(=O)c3cnc4sccn4c3=O)cc2)nc(C)n1
    -5.0 | . | -2 | 1 | 2%
Cn1nnc2cc(C(=O)Nc3ccccc3F)ccc21
    -1.4 | . | -2 | . | .
CCc1nc(Nc2ccccc2F)c2oc3ccccc3c2n1
    1.8 | . | -6 | . | .
CC(=O)c1c(-c2ccccc2)c2cc(Cl)ccc2[nH]c1=O
    1.7 | . | 3 | -8 | 3%
COC(=O)c1ccc(N2CCc3ccccc32)c([N+](=O)[O-])c1
    8.9 | . | 1 | . | .
Cc1ccccc1N(CC(=O)Nc1ccccc1C(=O)O)S(C)(=O)=O
    -0.8 | -1 | 4 | 1 | -1%
COC(=O)C(C)N(C(=O)c1cccc2ccccc12)c1c(C)cccc1C (stereo not drawn)
    -0.8 | -10 | -9 | 4 | -1%
O=[N+]([O-])c1ccc2nc(Cl)nc(-c3ccccc3)c2c1
    47* | . | 5 | . | .
Cc1ccc(-c2nnc(N3CCCCC3)c3ccccc23)cc1S(=O)(=O)NCC1CCCO1 (stereo not drawn)
    -0.9 | 10 | 2 | -4 | 8%
COc1ccccc1NC(=S)N(Cc1ccc(C)cc1)Cc1cccnc1
    2.9 | . | -4 | 12 | 2%
Cc1occc1C(=O)Nc1cccc(Cn2cccn2)c1
    -0.5 | -2 | . | -2 | -2%
O=c1[nH]c(=O)n(-c2ccccc2)c2c1C(C(F)(F)F)(C(F)(F)F)N=C(CCC1CCCCC1)N2
    -0.3 | -19 | -4 | 2 | -1%
Cc1cccc(NS(=O)(=O)c2ccc(OCC(=O)N3CCCC3)cc2)c1
    0.5 | . | 5 | . | .
COc1ccccc1C(=O)Nc1cccc(N(C)S(C)(=O)=O)c1
    2.1 | -2 | 2 | -5 | 6%
O=C(CSc1nc(O)cc(=O)n1-c1ccccc1)N1CCCCC1
    0.7 | 11 | . | 5 | -2%
COc1ccc(OCCOC(=O)CNS(=O)(=O)c2ccc(SC)c([N+](=O)[O-])c2)cc1
    1.9 | . | -6 | . | .
CCC(=O)N1CCN=C1SCc1cc(C)ccc1C
    10 | . | -11 | . | .
CCC1CCCCN1CCCNC(=O)Cn1c(=O)c2cccn2c2ccccc21 (stereo not drawn)
    -3.0 | . | -12 | . | .
COc1ccc(CNC(=O)C(c2ccc(C)o2)N(C(=O)c2csnn2)c2ccc(C(C)C)cc2)cc1 (stereo not drawn)
    11 | -11 | 4 | -34 | 6%
O=Cc1cn(Cc2ccc(Br)cc2)c2ccccc12
    5.6 | . | 26 | . | .
CC(C)c1nc(SCc2c(F)cccc2Cl)c2c(=O)n(C)c(=O)n(C)c2n1
    3.4 | -24 | -4 | -34 | 17%
COc1cccc(N2CCN(C(=O)c3ccc(CS(=O)c4ccc(Cl)cc4)o3)CC2)c1 (stereo not drawn)
    2.4 | . | -3 | . | .
COCCC(=O)N1CCc2c([nH]c3ccccc23)C1C(C)(C)C (stereo not drawn)
    2.3 | . | 4 | 6 | 9%
COc1ccccc1NC(=O)CN1CCC(c2nc3ccccc3[nH]2)CC1
    1.8 | . | -2 | 4 | -3%
c1ccc2c(c1)ccc1nnnn12
    0.8 | . | -4 | . | .

# The list goes on.
Compound | RecA intein inh | YopH PTP inh | Mtb betalactam | Arbovirus anti | Mtb growth
Cc1ccc(Sc2cnc3ccccc3n2)cc1 | 5.8 | -23 | -9 | 0 | 5%
O=C(NNC(=S)NC(=O)c1ccccc1Cl)c1cccc([N+](=O)[O-])c1 | 3.3 | . | 0 | . | .
Cc1cc(C)c2c(N=CN(C)C)c(C(=O)N3CCN(c4ncccn4)CC3)sc2n1 | -12 | -9 | -12 | 16 | -3%
Cc1cccc(NC(=O)c2ccc(S(=O)(=O)N3CCOCC3)cc2)c1C | 1.3 | . | -5 | . | .
Cc1cc(C(=O)N/N=C/c2ccc([N+](=O)[O-])cc2)c2ccccc2n1 | -0.9 | . | -3 | . | 14%
COc1ccc(OCc2nnc(SCC(=O)Nc3ccccc3F)o2)cc1 | 4.6 | . | 12 | . | .
CSCCC(NC(=O)C1CCC(C)CC1)C(=O)NCCN1CCC(C)CC1 (stereo not drawn) | -0.2 | . | -5 | 0 | -3%
NC(=O)CN1C(=O)C(=O)N(Cc2ccccc2Cl)C1=O | 1.6 | . | 4 | . | .
COC(=O)c1ccc(N2CCC(c3cc(-c4ccc(OC)cc4)n[nH]3)CC2)c([N+](=O)[O-])c1 | -2.4 | 34 | 31 | -28 | 15%
O=S(=O)(N1CCOCC1)N1CCCN(S(=O)(=O)N2CCOCC2)CC1 | -5.5 | -5 | -9 | -1 | -7%
O=C1N(c2cccc(Cl)c2)C(c2ccccc2)N2CCCN12 (stereo not drawn) | 2.2 | -14 | -10 | -6 | -2%
CC(=O)Nc1ccc(S(=O)(=O)N2CCN(C)CC2)cc1 | 0.9 | 0 | 0 | 1 | -11%
CC(=O)C1C(c2ccc(Br)cc2)C2C(C)=NN=C2CC1(C)O (stereo not drawn) | -6.2 | -27 | -9 | -1 | -5%
COc1cc(C2NC(=O)CCC2[N+](=O)[O-])cc(OC)c1OC (stereo not drawn) | 1.2 | . | -4 | . | .
Cc1ccc(CCNC(=O)C2CCC(=O)N2C2CCCC2)cc1 (stereo not drawn) | -1.4 | -20 | 1 | 3 | -2%
COc1cc(CCC(=O)Nc2ccc(Br)c(C(F)(F)F)c2)cc(OC)c1OC | 4.0 | -8 | 3 | 16 | 6%
NC(=O)[C@@H]1CCCNc2c(F)cc([N+](=O)[O-])cc2C(=O)N[C@@H](CO)C(=O)NCC(=O)N1 | -1.7 | -24 | -5 | 8 | -2%
CN(C)C(=O)Oc1ccc(Br)cc1C(=O)Nc1ccc(F)c(Cl)c1 | -3.8 | . | -2 | . | 20%
N=c1n(CC(=O)c2cccs2)c2ccccc2n1Cc1ccccc1 | 3.5 | . | -3 | . | 10%
Cc1ccc(S(=O)(=O)N(Cc2nccn2C)C(C)C)cc1 | -1.7 | -22 | 3 | 2 | -21%
N#CCC(=O)Nc1nc(-c2ccc3c(c2)OCCO3)cs1 | 1.7 | . | 7 | -1 | 9%
N#Cc1c(-c2ccccc2)cc(-c2cccs2)nc1SCC(=O)O | 1.9 | . | 1 | . | .
COc1cc(NS(=O)(=O)c2ccc3c(c2)NC(=O)CO3)cc(OC)c1 | -1.6 | . | -9 | . | .
c1ccc(Oc2ccc(-n3cnnn3)cc2)cc1 | 2.1 | -130 | -7 | -3 | 7%
CC1(c2ccc(Cl)cc2)NC(=O)N(CC(=O)c2ccc3c(c2)OCO3)C1=O (stereo not drawn) | 2.1 | . | 4 | . | .
O=C(c1ccc(OC2CCN(Cc3ccccc3O)CC2)cc1)N1CCCCC1 | 0.4 | . | -6 | . | .
O=C(COc1ccccc1)Nc1nc(-c2ccc(S(=O)(=O)N3CCOCC3)cc2)cs1 | 0.0 | -6 | 0 | -13 | -1%

# In another format: entries from further up
compound: N#CCC(=O)Nc1nc(-c2ccc3c(c2)OCCO3)cs1
  RecA intein inh: 1.7; YopH PTP inh: .; Mtb betalactam: 7; Arbovirus anti: -1; Mtb growth: 9%

compound: CC1(c2ccc(Cl)cc2)NC(=O)N(CC(=O)c2ccc3c(c2)OCO3)C1=O (stereo not drawn)
  RecA intein inh: 2.1; YopH PTP inh: .; Mtb betalactam: 4; Arbovirus anti: .; Mtb growth: .

compound: c1ccc(Oc2ccc(-n3cnnn3)cc2)cc1
  RecA intein inh: 2.1; YopH PTP inh: -130; Mtb betalactam: -7; Arbovirus anti: -3; Mtb growth: 7%
